StopGo RLuc – Primary qHTS Assay for Foot and Mouth Disease Virus Antivirals against NCGC Sytravon and CBC Compound Libraries: Renilla Luciferase Signal. HEK cells with a luciferase reporter of 2A StopGo recoding. Potency, µM (doses to about 57.5 µM), for the others: at the highest dose signal change, negative = less light. 0.32% of 120,000 active; active means well fitted falling curve with a large enough effect; inconclusive means small, poorly fitted or top-dose-only effect; inactive means no such curve, though single readings can be large or run the other way; note: nearly all actives have a fitted effect of over 55% in size; overnight with compound
2A firefly – Primary qHTS Assay for Foot and Mouth Disease Virus Antivirals against NCGC Sytravon and CBC Compound Libraries: Firefly Luciferase Signal; HEK cells with a luciferase reporter of 2A StopGo recoding; Potency, µM (highest dose often 57.5 µM), for the others: at the highest dose signal change, negative = less light; 0.23% of 120,000 active; AID 1745856, 2022; active = well fitted falling curve with a large enough effect; inconclusive = small, poorly fitted or top-dose-only effect; inactive = no such curve, though single readings can be large or run the other way; note: nearly all actives have a fitted effect of over 60% in size; overnight with compound
* hit, by the source's call; ? = inconclusive; [ ] = another dose, or the depositor's remark. % is set by controls: 0 for no effect and ±100 for the full control effect; potency is the fitted concentration of half-maximal effect.

molecule,2A firefly,StopGo RLuc
O=C(CCl)N1CCN(C/C=C/c2ccccc2)CC1,-10%,-14%[1.06 µM]
CCCCn1nc(C(=O)Nc2ccc3nc(C)sc3c2)c2ccccc2c1=O,17%,38%[activator]
CCCCOc1ccc(NC(=O)c2cc3c(n(-c4ccc(Cl)cc4)c2=O)CCCC3=O)cc1,-6%,-5%
CCn1c(SCC(=O)NCc2cccs2)nnc1-c1ccc2c(c1)OCCCO2,22%,25%
CC1=CC(=O)C2(CCCCC2)NC1,9%,8%
Cc1ccc(CCNC(=O)c2ccc(CS(=O)(=O)c3ccc(Br)cc3)o2)cc1,-14%,-15%
c1coc(CNC23CC4CC(CC(C4)C2)C3)c1,5%,14%[1.06 µM]
CCn1ccc2cc(S(=O)(=O)N3CCC(C(=O)NCc4ccco4)CC3)ccc21,17%,63%[activator]
CC(NC(=O)c1ccc2c(c1)NC(=O)CS2)c1ccc2c(c1)CC(=O)N2 (centres undefined),3%,7%
Cc1ccn2c(Nc3ccc4c(c3)OCO4)c(-c3ccc(O)cc3)nc2c1,23%,10%
CC(=O)Nc1ccc(NC(=O)c2cccc3c(Br)cccc23)cc1,21%,13%
CCOC(=O)C1CCCN(S(=O)(=O)c2cc(Br)cc3c2N(C(=O)CC)CC3)C1 (centres undefined),-13%,3%
COc1cccc(NS(=O)(=O)c2cc(-c3cnc(C)o3)ccc2C)c1,-36%,119%[activator]
Cc1cccc(C)c1NC(=O)CSC1=NS(=O)(=O)c2ccccc2N1,13%,?
CCCC(C(=O)NCc1ccc(OC)c(OC)c1)c1ccccc1 (centres undefined),21%,6%
CCOC(=O)c1cc(-c2ccc(C)cc2)n(CCC(=O)NCCc2ccc(C)cc2)c1C,-4%,3%
Cc1cccc(C(=O)N(Cc2ccco2)c2ccccn2)c1,125%[activator],42%[activator]
O=C(CC1CCCCC1)Nc1ccc(-c2nc3ccccc3s2)cc1,77%[activator],17%
Cc1sc2nc(CN3CCCC3)nc(Sc3nnnn3C3CC3)c2c1C,?,?
COC(=O)Cc1c(C)c2ccc(O)cc2oc1=O,0%,-3%
O=C(O)c1ccc(CCO)s1,-2%,0%
Cc1ccc(CCNC(=O)CCSCc2ccccc2F)cc1,-16%,-10%
Cc1c2cnn(CC(=O)NC(C)C)c(=O)c2c(C)n1Cc1cccc(Cl)c1,-12%,0%
O=C(OCC(=O)N1CCCCCC1)c1ccccc1-c1nc2ccccc2s1,88%[activator],157%[activator]
C=CCNC(=O)c1cc(-c2ccc3ccccc3n2)nc2ccccc12,24%,-10%

3 structures from above, ordered by formula weight, ascending:
molecule,2A firefly,StopGo RLuc
c1coc(CNC23CC4CC(CC(C4)C2)C3)c1,5%,14%[1.06 µM]
Cc1ccn2c(Nc3ccc4c(c3)OCO4)c(-c3ccc(O)cc3)nc2c1,23%,10%
CCOC(=O)C1CCCN(S(=O)(=O)c2cc(Br)cc3c2N(C(=O)CC)CC3)C1 (centres undefined),-13%,3%

Later entries
molecule,2A firefly,StopGo RLuc
Cc1ccc(NC(=O)c2cn(C)c3ccccc23)c2cccnc12,4%,-11%
O=C(NCc1ccc(O)cc1)c1cnc2ccccc2n1,17%,3%
Cc1ccc2c(=O)c(C(=O)c3ccccc3)cn(CC(=O)Nc3ccccc3)c2n1,-14%,-9%
CCC12CC3CC(Br)(C1)CC(C(=O)O)(C3)C2 (centres undefined),7%,11%
CC(C)OC(=O)c1cccnc1SCC(=O)Nc1ccc(C(F)(F)F)cc1Cl,39%[activator],-12%
Cc1ccc2[nH]c3c(=O)n(CC(=O)N(CCN(C)C)Cc4ccccc4)ncc3c2c1,-5%,-8%
Cc1cnc2c(S(=O)(=O)NCCCOC(C)C)cccc2c1,0%,103%[activator]
COc1cccc(C(=O)Nc2c(C(=O)N3CCN(Cc4ccccc4)CC3)oc3ccccc23)c1,-3%,22%
COc1ccc(Cl)cc1-n1cnc2cc(C(=O)N3CCSCC3)ccc2c1=O,-8%,7%
Cc1cccc(-c2cccc3c4c([nH]c23)[C@@H]2C[C@H](N(C)C(=O)C3CCCCC3)[C@H]([C@H](C)O)CN2CC4)c1,9%,14%
COc1ccc(-c2noc(CSc3nnc(-c4ccc(Cl)cc4)n3C)n2)cc1OC,41%[activator],71%[activator]
Cc1ccc(S(=O)(=O)N2CCN(Cc3ccccc3)CC2)c(C)c1NS(C)(=O)=O,-22%,11%
Cc1cc(O)c(-c2ccnc3cc(-c4ccccc4)nn23)cc1Cl,3%,-8%
COc1ccc(C(=O)OCc2ccc(C#N)cc2)c(O)c1,0%,36%[activator]
CN(C)C(=O)CSc1nc(-c2ccco2)nc2ccccc12,103%[activator],58%[activator]
Cc1[nH]c(=O)[nH]c(=O)c1S(=O)(=O)Nc1ccc(Br)cc1,-9%,-15%
c1ccc2n[nH]nc2c1,8%,3%
CC(=O)c1ccc(NC(=O)C23CCC(C2)C(C)(C)C3=O)cc1 (centres undefined),87%[activator],-4%
CC(C)(C)C(=O)N1CCC(C(=O)N2CCN(c3ccc(F)cc3)CC2)CC1,-6%,-5%
COc1ccc(-c2cn3nc(N4CCCC(C(=O)Nc5ccc(C)c(C)c5)C4)sc3n2)cc1 (centres undefined),8%,-14%
CC1(C)CC(=O)C2=C(C1)OC(N)=C(C#N)C2c1c2ccccc2cc2ccccc12 (centres undefined),57%[activator],53%[activator]
CCCSc1nc2c(c(=O)n(C)c(=O)n2C)n1CCCc1ccccc1,?,?
COc1ccccc1N1CCN(C(=O)CCS(=O)(=O)c2ccc3c(c2)oc(=O)n3C)CC1,-20%,-5%
Cc1ccc(CN2CCN(Cc3c[nH]c4ccccc34)CC2)cc1,-6%,-16%
CCC(CNC(=O)c1nn(-c2ccccc2)c(=O)c2ccccc12)c1ccccc1 (centres undefined),6%,-1%

Retrieved by structure from the list above, 3 records:
molecule,2A firefly,StopGo RLuc
COc1ccccc1N1CCN(C(=O)CCS(=O)(=O)c2ccc3c(c2)oc(=O)n3C)CC1,-20%,-5%
CC(NC(=O)c1ccc2c(c1)NC(=O)CS2)c1ccc2c(c1)CC(=O)N2 (centres undefined),3%,7%
Cc1[nH]c(=O)[nH]c(=O)c1S(=O)(=O)Nc1ccc(Br)cc1,-9%,-15%

Next entries follow:
molecule,2A firefly,StopGo RLuc
Nc1ccccc1-n1ccnc1,29%,14%
N#Cc1cccc(OCC(=O)c2ccc3c(c2)CCCC3)c1,81%[activator],51%[activator]
Cc1ccc(NC(=O)C2CCCN(S(=O)(=O)c3cccc4cccnc34)C2)c(C)c1 (centres undefined),-12%,24%
COc1cccc(NC(=O)c2sc3nc(C)c(C(=O)Nc4ccc(C)cc4C)c(-c4ccc(Br)cc4)c3c2N)c1,7%,-18%
COCCCNc1ncnc2c1cnn2-c1ccc(F)cc1,111%[activator],-2%
CCN(CC)C(=S)SC(C(=O)NC(N)=O)C(C)C (centres undefined),-12%,-2%
Cc1ccc(Br)cc1[N+](=O)[O-],4%,-8%
CCCCN(C)Cc1c(C)[nH]c2c(C)c(C)ccc2c1=O,-7%,-4%
O=C(Cc1ccccc1)N(Cc1cccnc1)c1nc2ccc(F)cc2s1,-4%,35%[activator]
NC(=O)c1ccc(NC(=O)CCC2CCCC2)cc1Cl,89%[activator],39%[activator]
COc1cccc2cc(-c3cc(=O)oc4ccc(OS(=O)(=O)c5ccccc5)cc34)oc12,9%,-4%
CC(Oc1ccccc1)C(=O)NN (centres undefined),2%,2%
COc1ccc(CNC(=O)CN2C(=O)COc3ccc(S(=O)(=O)N4CCOCC4)cc32)cc1,0%,-9%
Cc1cc(C)cc(-n2ccnc2SCC(=O)Nc2ccccc2F)c1,?,20µM*
O=C1CCN(C(=O)/C=C/c2cc(Br)ccc2F)CC1,19%,0%
CC(C)OCCCNC(=O)c1nn(C)c2c1CSc1ccccc1-2,0%,-6%
COC(=O)c1c(NC(=O)C(C)Oc2ccc(Cl)cc2Cl)sc2c1CCCC2 (centres undefined),21%,7%
COc1ccc(C(=O)Oc2c(Sc3ccc(Cl)cc3)c(C)nn2C(C)(C)C)cc1OC,-8%,-9%
Cc1occc1-c1nnc(SCC(=O)c2cc(C)n(C3CC3)c2C)n1-c1ccccc1,3%,-5%
CSc1ncc(C(=O)NCc2ccc(C)cc2)c(-c2ccccc2)n1,-7%,-12%
CCOC(=O)c1ccc(NC(=O)c2cc(=O)c3cc(C)cc(C)c3o2)cc1,5%,-4%
CN(C)S(=O)(=O)N1CCC(n2c(C(F)(F)F)nc3cccnc32)CC1,-8%,-2%
O=C(CNC(=O)NCc1ccc(C(F)(F)F)cc1)NCC(F)(F)F,-1%,-12%
CC(C)(C)CC1CCCN1C(=O)CCc1nc2ccccc2c(=O)[nH]1 (centres undefined),6%,-4%
Cc1[nH]c2ccccc2c1C(C(=O)O)N1CCN(C(c2ccccc2)c2ccccc2)CC1 (centres undefined),-20%,-17%

Of the compounds above, 3 have a CF3 group:
molecule,2A firefly,StopGo RLuc
CC(C)OC(=O)c1cccnc1SCC(=O)Nc1ccc(C(F)(F)F)cc1Cl,39%[activator],-12%
CN(C)S(=O)(=O)N1CCC(n2c(C(F)(F)F)nc3cccnc32)CC1,-8%,-2%
O=C(CNC(=O)NCc1ccc(C(F)(F)F)cc1)NCC(F)(F)F,-1%,-12%

A stretch from the list above, as a working copy:
molecule,2A firefly,StopGo RLuc
O=C(CC1CCCCC1)Nc1ccc(-c2nc3ccccc3s2)cc1,77%[activator],17%
Cc1sc2nc(CN3CCCC3)nc(Sc3nnnn3C3CC3)c2c1C,?,?
COC(=O)Cc1c(C)c2ccc(O)cc2oc1=O,0%,-3%

Carrying on:
molecule,2A firefly,StopGo RLuc
CC(=O)c1ccc(NC(=O)CCc2c(C)nn(-c3ccc(N4CCOCC4)nn3)c2C)cc1,72%[activator],7%
CC(C)c1cccc(NC(=O)CC2(C(=O)O)CCCC2)c1,0%,-3%
O=C1CSc2ccc(C(=O)NNC(=O)c3ccc(COc4ccccc4)o3)cc2N1,?,?
O=C(Cn1c(-c2cccs2)cc2ccccc21)NCCCN1CCN(c2ccc(F)cc2)CC1,-9%,-9%
Cc1ccc(NC(=O)Cc2nn(C)c(=O)c3ccccc23)cc1C,?,?
Fc1cccc(Cl)c1C1NC(=S)NC2=C1CCc1ccccc12 (centres undefined),28%,5%
Cc1ccc(C)c(N2CCN(C(=O)CCn3c(=O)[nH]c4ccccc4c3=O)CC2)c1,7%,-4%
Cc1ccccc1-c1nc2ccccc2s1,0%,1%
O=C(O)CCC(=O)N1N=C(c2ccccc2)CC1c1ccc2nccnc2c1 (centres undefined),42%[activator],-5%
CC(OC(=O)C1CCC1)C(=O)c1c[nH]c2ccccc12 (centres undefined),16%,19%
CCc1ccc2cc(-c3ccc(C)c(C)c3)cn2c1,151%[activator],-1%[1.06 µM]
Cc1ccc(Nc2nc(-c3cnc(N4CCCCC4)nc3C)cc(=O)[nH]2)cc1C,-21%,-8%
COc1ccccc1N1CCN(C(=O)c2cnn(-c3cccc(Cl)c3)c2C2CCN(C(=O)OC(C)(C)C)CC2)CC1,-18%,-15%
CN(C)c1ccc(CNC(=O)c2sc3ncccc3c2-n2cccc2)cc1,-15%,-5%
Cc1c(CNC2CCCCCC2)c(C(=O)O)c(C)n1Cc1ccc(F)cc1Cl,-28%,3%
Cn1c(=O)c2c(nc(N3CCCCCC3)n2Cc2cccc(Br)c2)n(C)c1=O,-13%,-5%
O=C(Cn1ncc2c(Cl)cccc21)NCc1cccc(Cl)c1,22%,-7%

These rows are one share of the data, so the mix of outcomes need not match the whole.
